TRPV1 PAM = HTS Assay for Compounds that Act as Potentiators of the Vanilloid Receptor 1 | TRPV1-expressing cells, Fluo-8 calcium influx, capsaicin EC20 potentiation; host cell line not named in the record; control for the full effect not named in the record | Transient receptor potential cation channel subfamily V member 1 (Homo sapiens), Q8NER1 | potentiation, % at 8.33 µM | AID 540277, 2011 | actives 0.02% (n = 320,000); active means potentiation above 80%; inconclusive means 30% to 80%; inactive means below 30%; note: 0% is about no effect
Target sequence (Q8NER1 whole entry, looked up): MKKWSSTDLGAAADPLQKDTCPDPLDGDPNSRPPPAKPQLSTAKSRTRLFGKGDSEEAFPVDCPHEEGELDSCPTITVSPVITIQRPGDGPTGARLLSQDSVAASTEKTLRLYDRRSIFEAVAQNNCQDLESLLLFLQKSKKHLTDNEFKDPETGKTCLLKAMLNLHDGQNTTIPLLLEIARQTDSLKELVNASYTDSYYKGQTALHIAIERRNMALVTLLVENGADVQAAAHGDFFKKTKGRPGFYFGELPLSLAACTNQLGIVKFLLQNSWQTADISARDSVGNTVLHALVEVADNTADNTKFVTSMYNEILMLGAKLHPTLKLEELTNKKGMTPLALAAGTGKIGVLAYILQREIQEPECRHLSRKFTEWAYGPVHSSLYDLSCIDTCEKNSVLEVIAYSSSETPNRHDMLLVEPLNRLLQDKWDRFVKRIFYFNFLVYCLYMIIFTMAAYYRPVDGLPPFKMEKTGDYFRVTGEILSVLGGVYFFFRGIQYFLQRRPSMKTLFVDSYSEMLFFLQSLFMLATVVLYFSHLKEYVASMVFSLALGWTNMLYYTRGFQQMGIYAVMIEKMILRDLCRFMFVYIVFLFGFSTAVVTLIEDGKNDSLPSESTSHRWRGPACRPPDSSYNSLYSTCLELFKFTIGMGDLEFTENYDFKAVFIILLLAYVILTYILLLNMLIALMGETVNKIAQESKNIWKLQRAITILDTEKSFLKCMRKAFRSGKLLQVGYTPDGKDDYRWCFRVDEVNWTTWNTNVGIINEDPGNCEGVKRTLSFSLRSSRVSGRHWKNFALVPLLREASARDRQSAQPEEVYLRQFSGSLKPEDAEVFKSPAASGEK
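TRPV1-expressing cells were cultured overnight at 35.5C and loaded with Fluo-8 calcium dye for 40 to 90 min at room temperature. After a 10 s baseline, compound was added and calcium influx was read kinetically for 3 min (ex 480/em 520 nm).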
D2 PAM = Beta-Arrestin HTS for Positive Allosteric Modulators of the Human D2 Dopamine Receptor: Potentiators. DiscoveRx D2 beta-arrestin cells, luminescence, 90 min; 100% = 57 uM dopamine signal. potentiation, % (no concentration beside the values). actives 0.23% (n = 360,000); active = potentiation of 50% or more; inconclusive = 30% to 50%; inactive = 30% or less;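 note: compound concentration not given in the record; tested on top of an EC20 dose of dopamine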
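PathHunter beta-arrestin assay in DiscoveRx D2 cells. Compounds were added with an EC20 of dopamine (50 nM final) for 90 min at 37 deg C. Luminescence was read 1 h after detection reagent, with 57 uM dopamine as the EC100 control.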
Sfp PPTase inh = qHTS Assay for Inhibitors of Bacillus subtilis Sfp phosphopantetheinyl transferase (PPTase); 4'-phosphopantetheinyl transferase ffp (Bacillus subtilis), Q9F4F7; Biochemical Sfp PPTase activity, qHTS; actives 3.5% (n = 310,000); Potency, µM, without a hit: max response, negative = inhibition, usual class: inhibitors; active = well fitted inhibition curve with a large enough effect; inconclusive = small, poorly fitted or top-dose-only effect, or another doubt; inactive = no such curve, though single readings can be large or run the other way;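 note: the enzyme is Sfp with the accession as filed and its product quenches rhodamine fluorescence; potency is the fitted concentration of half-maximal effect; 0% = enzyme reaction without inhibitor and -100% = no enzyme wells; top concentration of the series not given in the record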
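Buffer: 50 mM Hepes-Na pH 7.6, 10 mM MgCl2, 0.01% Nonidet P-40, 0.01% BSA. Enzyme 15 nM, pre-exposed to compound 15 min; substrates then added and fluorescence change tracked over 30 min.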
Menin-MLL FL inh = qHTS Assay for Inhibitors Targeting the Menin-MLL Interaction in MLL Related Leukemias: Competition With Fluorescein Labeled MLL-derived Peptide. Fluorescence polarization, fluorescein-MLL peptide displacement from menin. FP activity change, % at 61.4 µM. 290,000 tested, under 10 active. AID 1766, 2009; inconclusive = falling polarisation curve, or a change in total fluorescence; inactive = total fluorescence flat and polarisation flat or rising; no compound was filed as active; the % refers to the polarisation; negative = inhibition;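 note: % of control where 0% means no effect; inhibitors lower the polarisation; unlabelled MLL peptide was the positive control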
ClpP mod = qHTS Assay for Activators of ClpP. purified B. subtilis ClpP, FRET peptide cleavage, 20 min. Potency, µM (doses to about 57.5 µM), for inactives: at the highest dose activity change, negative = active. actives 1.9% (n = 340,000). AID 651965, 2013; active = well fitted falling curve with a large enough effect; inconclusive = small, poorly fitted or top-dose-only effect; inactive = no such curve, though single readings can be large or run the other way; note: potency is the fitted concentration of half-maximal effect; the source files actives as falling curves though it sought activators and does not explain the sign; nearly all actives have a fitted effect of over 65% in size; many hits overshoot -100%
Target sequence (P80244 whole entry, looked up): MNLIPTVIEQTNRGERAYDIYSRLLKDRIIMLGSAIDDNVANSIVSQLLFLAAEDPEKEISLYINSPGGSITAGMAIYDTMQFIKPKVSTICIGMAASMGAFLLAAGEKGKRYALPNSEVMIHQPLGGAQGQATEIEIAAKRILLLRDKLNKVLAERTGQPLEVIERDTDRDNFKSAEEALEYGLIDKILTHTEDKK
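FRET quenching reversal measured ClpP activation: 10 microg/mL B. subtilis ClpP at pH 8 with the FRET-FV decapeptide, read at 430 nm after 320 nm excitation. The 20-min minus 0-min signal was scaled between DMSO/no-enzyme wells and ADEP (5.8 microM final).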
gsp ag = qHTS for Agonist of gsp, the Etiologic Mutation Responsible for Fibrous Dysplasia/McCune-Albright Syndrome: qHTS; gsp mutant cells, cAMP HTRF, 30 min; control for the full effect not named in the record; Potency, µM (top dose mostly 76.9 µM), for inactives: at the highest dose activation (cAMP increase), most hits filed as activators; actives 0.13% (n = 340,000); AID 624287, 2012; active = well fitted activation curve with a large enough effect; inconclusive = small, poorly fitted or top-dose-only effect, or another doubt; inactive = no such curve, though single readings can be large or run the other way; cell line not stated here;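 note: phosphodiesterase inhibitor Ro 20-1724 added with compounds to block cAMP breakdown; potency is the fitted concentration of half-maximal effect; nearly all actives have a fitted effect of over 60% in size; about a fifth of the inactives were tested at one dose only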
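Cells stably selected in G418 were plated at 2000/well, grown 16-24 hr, then given compounds in DMSO with the PDE inhibitor […] (300 uM solution added) for 30 min at 37C; cAMP was read by HTRF.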
gsp antag = qHTS for Antagonists of gsp, the Etiologic Mutation Responsible for Fibrous Dysplasia/McCune-Albright Syndrome: qHTS | gsp-mutant cells, cAMP HTRF, 30 min; control for the full effect not named in the record | Potency, µM (titrated, usually from 76.9 µM), without a hit: at the top dose activity change, negative = inhibition, usual class: inhibitors | actives 0.4% (n = 340,000); active = falling curve of any shape with a large fitted effect; inconclusive = falling curve, mostly with a smaller effect; inactive = flat or rising curve; cell line not stated here;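 note: intracellular cAMP measured with PDE inhibitor Ro 20-1724 present during compound exposure; potency is the fitted concentration of half-maximal effect; % is set by controls: 0 for no effect and ±100 for the full control effect; nearly all actives have a fitted effect of over 65% in size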
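Measurement of cellular cAMP by homogeneous time-resolved fluorescence following a 30 min compound exposure at 37C. The PDE inhibitor […] was present throughout; the assay buffer was DPBS with 0.05% BSA and 0.005% Tween 20.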
An asterisk follows results filed as active; [ ] = remark or other dose.

The first two entries as a preview:
How did CC(=O)OCC1=C(C(=O)O)N2C(=O)C(NC(=O)c3ccc(COc4c(C)cccc4Cl)o3)C2SC1 (stereo not given) do in these assays?
TRPV1 PAM: 4; D2 PAM: -3; Sfp PPTase inh: 63µM*; Menin-MLL FL inh: -0.3; gsp ag: -1%; gsp antag: -2%

How did Cc1nc2ccc(S(=O)(=O)NC(C(=O)Nc3nc4ccc(Cl)cc4s3)C(C)C)cc2s1 (stereo not given) do in these assays?
TRPV1 PAM: -4; D2 PAM: -9; Sfp PPTase inh: 16%; Menin-MLL FL inh: 1.3; ClpP mod: -0.3%; gsp ag: -6%; gsp antag: -2%

The list itself (from the top)
How did CC(=O)OCC1=C(C(=O)O)N2C(=O)C(NC(=O)c3ccc(COc4c(C)cccc4Cl)o3)C2SC1 (stereo not given) do in these assays?
TRPV1 PAM: 4; D2 PAM: -3; Sfp PPTase inh: 63µM*; Menin-MLL FL inh: -0.3; gsp ag: -1%; gsp antag: -2%

How did Cc1nc2ccc(S(=O)(=O)NC(C(=O)Nc3nc4ccc(Cl)cc4s3)C(C)C)cc2s1 (stereo not given) do in these assays?
TRPV1 PAM: -4; D2 PAM: -9; Sfp PPTase inh: 16%; Menin-MLL FL inh: 1.3; ClpP mod: -0.3%; gsp ag: -6%; gsp antag: -2%

How did CSc1nnc(CNS(=O)(=O)c2ccc(Cl)cc2)n1C do in these assays?
TRPV1 PAM: 5; D2 PAM: 5; Sfp PPTase inh: 7%; Menin-MLL FL inh: -7.4; gsp ag: -36%[inhibitor]; gsp antag: -3%

Results for Cn1c(Cn2c(=O)sc3ccccc32)nnc1SCc1ccccn1 ?
TRPV1 PAM: -8; D2 PAM: -5; Sfp PPTase inh: 12%; Menin-MLL FL inh: -1.0; ClpP mod: -2.5%; gsp ag: -9%; gsp antag: 6%

Results for Cc1cc(N2CCN(C3CCCCC3)CC2)nc2cccc(O)c12 ?
TRPV1 PAM: -3; D2 PAM: -6; Sfp PPTase inh: 13%; Menin-MLL FL inh: 1.4; ClpP mod: -5.3%; gsp ag: -2%; gsp antag: 3%

Results for Fc1ccc(C2CCCCN2Cc2nc(CC3CC3)no2)cc1 (stereo not given) ?
TRPV1 PAM: -7; D2 PAM: 4; Sfp PPTase inh: -2%; Menin-MLL FL inh: 1.2; gsp ag: -3%[15.4 µM]; gsp antag: -19%

Results for O=C(Nc1ccc(Cl)cc1)c1cccs1 ?
TRPV1 PAM: 11; D2 PAM: -6; Sfp PPTase inh: -6%; Menin-MLL FL inh: 3.7; ClpP mod: 2.5%; gsp ag: 12%; gsp antag: -21%

Results for COc1cc(-c2nc3ccc(C)cn3c2Nc2ccc3c(c2)OCCO3)ccc1O ?
TRPV1 PAM: -1; D2 PAM: 27; Sfp PPTase inh: -17%; Menin-MLL FL inh: -0.5; ClpP mod: -3.8%; gsp ag: 3%[15.4 µM]; gsp antag: -12%

Results for CCOc1ccccc1C(=O)NCC(=O)NNC(=O)CN(C)S(=O)(=O)c1ccc(Cl)cc1 ?
TRPV1 PAM: 4; D2 PAM: -10; ClpP mod: -0.8%; gsp ag: -72%[inhibitor]; gsp antag: -9%

What do the screens show for `Cc1ccc(C)c(N2CCN(C(=O)CCCn3c(=S)[nH]c4cc5c(cc4c3=O)OCO5)CC2)c1`?
TRPV1 PAM: -4; D2 PAM: 17; Sfp PPTase inh: 7%; Menin-MLL FL inh: 2.0; ClpP mod: -6.3%; gsp ag: 5%; gsp antag: 3%

How did Cc1ncc([N+](=O)[O-])n1CCOC(=O)NC(NCc1cccnc1)C(Cl)(Cl)Cl (stereo not given) do in these assays?
TRPV1 PAM: -1; D2 PAM: -4; Sfp PPTase inh: 17%; Menin-MLL FL inh: -0.3; ClpP mod: -2.3%; gsp ag: -27%; gsp antag: 7%

What do the screens show for `O=C(NCCc1cccc(Cl)c1)c1cccc(-n2cnnn2)c1`?
TRPV1 PAM: -5; D2 PAM: 5; ClpP mod: -18%; gsp ag: -2%; gsp antag: -3%

What do the screens show for `Cn1c2nc(=O)n(-c3ccccc3)c(=O)c-2nc2c1CCCC2`?
D2 PAM: -6; ClpP mod: 3.9%; gsp ag: inconclusive

Results for CC12CCC3c4ccc(O)cc4CCC3C1CC(O)C2O (stereo not given) ?
TRPV1 PAM: 30; D2 PAM: 9; ClpP mod: 0.7%; gsp antag: -2%

Results for O=C(Cc1nnc(NC(=O)c2ccccc2)s1)N/N=C/c1cccc(O)c1 ?
TRPV1 PAM: -9; D2 PAM: -5; Sfp PPTase inh: 12%; Menin-MLL FL inh: 4.7; ClpP mod: -1.2%; gsp ag: 5%[15.4 µM]; gsp antag: -8%

What do the screens show for `CN(C(=O)CC1C(=O)NCCN1Cc1cccc(F)c1F)C1CC(C)(C)NC(C)(C)C1` (stereo not given)?
TRPV1 PAM: 13; D2 PAM: -12; Sfp PPTase inh: 0%; ClpP mod: -2.1%; gsp ag: -47%[inhibitor]; gsp antag: -4%

How did COc1ccc(C(=O)NCCc2c[nH]c3ccccc23)cc1S(=O)(=O)N1CCCCC1C (stereo not given) do in these assays?
TRPV1 PAM: -9; D2 PAM: -8; ClpP mod: -3.8%; gsp ag: 25%; gsp antag: -15%

Results for CCCC(=O)N=c1sc2c(OC)ccc(OC)c2n1C ?
D2 PAM: -9; Sfp PPTase inh: 12%; Menin-MLL FL inh: 23; ClpP mod: -2.1%; gsp ag: -3%; gsp antag: 7%

Results for CCOC(=O)c1nc(SC)n(C)c1C(=O)OCC ?
TRPV1 PAM: -8; D2 PAM: -13; Sfp PPTase inh: 18%; Menin-MLL FL inh: -2.6; gsp ag: -5%[15.4 µM]; gsp antag: 11%

Results for O=C(NNC(=O)c1ccccc1F)c1ccc(NS(=O)(=O)c2ccc(F)cc2)cc1 ?
TRPV1 PAM: 6; D2 PAM: -26; ClpP mod: 1.6%; gsp ag: 4%[15.4 µM]; gsp antag: 1%

Results for COc1ccc(CC(=O)n2c(CC#N)nc3ccccc32)cc1OC ?
TRPV1 PAM: 8; D2 PAM: -10; Sfp PPTase inh: -7%; Menin-MLL FL inh: 1.1; ClpP mod: -1.6%; gsp ag: -30%; gsp antag: 11%

Results for COC(=O)c1sccc1-c1ccc(C(=O)Nc2cccc(Cl)c2)o1 ?
TRPV1 PAM: 1; D2 PAM: -22; Sfp PPTase inh: -5%; Menin-MLL FL inh: 7.1; ClpP mod: 357%; gsp ag: -18%; gsp antag: -31%

Results for c1ccc(COc2ccc(OCCCN3CCCCC3)cc2)cc1 ?
TRPV1 PAM: -3; D2 PAM: -21; Sfp PPTase inh: -15%; Menin-MLL FL inh: 2.8; ClpP mod: -4.3%; gsp ag: -7%; gsp antag: 16%

What do the screens show for `CCOC(=O)N1CCN(S(=O)(=O)c2c(C)nn(C)c2C)CC1`?
TRPV1 PAM: -1; D2 PAM: 1; Sfp PPTase inh: 24%; Menin-MLL FL inh: 2.7; ClpP mod: -2.4%; gsp ag: 16%; gsp antag: 11%

Results for CCN(CC(=O)NC(C)C)Cc1nc2sc3c(c2c(=O)[nH]1)CCC3 ?
TRPV1 PAM: 3; D2 PAM: 2; Sfp PPTase inh: -7%; Menin-MLL FL inh: 0.9; ClpP mod: 13µM*; gsp ag: 9%; gsp antag: -11%

What do the screens show for `Cc1ccc(C(=O)Nc2ccc(CN3CCS(=O)(=O)CC3)cc2)cc1C`?
TRPV1 PAM: -31; D2 PAM: -5; Sfp PPTase inh: 14%; Menin-MLL FL inh: -2.7; ClpP mod: 0.4%; gsp ag: 12%[15.4 µM]; gsp antag: -13%

What do the screens show for `COc1cccc(NS(=O)(=O)c2ccc3[nH]cc(C(=O)NCCC(C)C)c(=O)c3c2)c1`?
TRPV1 PAM: -19; D2 PAM: 5; Sfp PPTase inh: 7%; Menin-MLL FL inh: 0.4; ClpP mod: -11%; gsp ag: inconclusive; gsp antag: -21%

What do the screens show for `Cc1ccc(C)c(S(=O)(=O)N2CCN(C(=O)CCNS(=O)(=O)c3ccc(C)c(C)c3)CC2)c1`?
TRPV1 PAM: 13; D2 PAM: 9; ClpP mod: 0.7%; gsp ag: -21%; gsp antag: inconclusive

What do the screens show for `Oc1ccc(C2=NNC(=NCc3ccc4c(c3)OCO4)SC2)c(O)c1`?
TRPV1 PAM: -5; D2 PAM: 10; Sfp PPTase inh: -27%; Menin-MLL FL inh: 14; ClpP mod: 1.1%; gsp ag: -2%; gsp antag: 8%

What do the screens show for `Cc1ccc(C)c(N(CC(=O)NCc2ccccc2)C(=O)c2csnn2)c1`?
TRPV1 PAM: -1; D2 PAM: -6; Sfp PPTase inh: 13%; Menin-MLL FL inh: -1.5; gsp ag: 9%; gsp antag: -4%

What do the screens show for `Cc1cccc(N2CCN(C(=S)c3ccccc3)CC2)c1`?
TRPV1 PAM: 11; D2 PAM: -4; Sfp PPTase inh: inconclusive; Menin-MLL FL inh: -3.0; gsp ag: -32%[15.4 µM]; gsp antag: -6%

Results for O=c1c2cc(NC(=S)NC3CCCCC3)ccc2nc2n1CCCCC2 ?
TRPV1 PAM: -10; D2 PAM: 0; Sfp PPTase inh: 6%; Menin-MLL FL inh: 1.8; gsp ag: inconclusive; gsp antag: -7%

How did O=C(c1cc2ccccc2c(=O)o1)N1CCCCCC1 do in these assays?
TRPV1 PAM: -5; D2 PAM: -5; Sfp PPTase inh: -9%; Menin-MLL FL inh: 0.8; ClpP mod: -2.0%; gsp ag: 5%[15.4 µM]; gsp antag: -1%

What do the screens show for `CC(NC(=O)Cn1ncc(Cl)c(Cl)c1=O)C12CC3CC(CC(C3)C1)C2` (stereo not given)?
TRPV1 PAM: 1; D2 PAM: -29; Sfp PPTase inh: -6%; Menin-MLL FL inh: 6.7; ClpP mod: -2.6%; gsp ag: 5%; gsp antag: inconclusive

Screens as filed in PubChem.
